VDR inh = vitamin D3 receptor (human) inhibition. hit rate 0.93% among 400,000. VDR-SRC2-3 peptide fluorescence polarization, 2 h. AID 504847. P11473. Potency, µM, without a hit: max response, negative = inhibition, actives largely listed as inhibitors; active = well fitted inhibition curve with a large enough effect; inconclusive = small, poorly fitted or top-dose-only effect, or another doubt; inactive = no such curve, though single readings can be large or run the other way; also: series mostly up to about 120 µM
Target sequence (P11473 whole entry, looked up): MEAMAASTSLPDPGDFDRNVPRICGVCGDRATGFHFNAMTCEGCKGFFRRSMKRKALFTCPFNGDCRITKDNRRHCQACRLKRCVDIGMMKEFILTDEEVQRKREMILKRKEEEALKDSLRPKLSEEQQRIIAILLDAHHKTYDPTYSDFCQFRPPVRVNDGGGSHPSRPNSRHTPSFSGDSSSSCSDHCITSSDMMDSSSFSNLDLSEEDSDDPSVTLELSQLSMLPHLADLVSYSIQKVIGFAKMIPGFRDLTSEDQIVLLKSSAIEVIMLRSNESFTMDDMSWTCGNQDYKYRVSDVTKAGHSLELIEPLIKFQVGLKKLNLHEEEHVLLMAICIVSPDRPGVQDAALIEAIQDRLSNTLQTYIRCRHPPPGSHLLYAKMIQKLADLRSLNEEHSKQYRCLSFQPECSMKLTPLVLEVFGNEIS
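VDR–SRC2-3 interaction, FP format. Cmpds 23 nl via pintool, brief spin, 2 h ambient incubation.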
The depositor's hits bear a star; ? = inconclusive; & = joins results of further samples; [ ] = another dose, or the depositor's remark. % is scaled to controls: 0 for no effect and ±100 for the full control effect; potency is read from the fitted curve at half-maximal effect. Not all compounds are listed, so the mix of outcomes need not match the whole.

SMILES | VDR inh
Cc1cc(=O)oc2cc(OC(=O)CCN3C(=O)c4ccccc4C3=O)ccc12 | -17%
CCn1c(CCC(=O)O)nc2cc(S(=O)(=O)N(C)C)ccc21 | 4%
Fc1ccc(C(NCCc2ccc(Cl)cc2)c2nnc(-c3ccccc3)o2)c(Cl)c1 (stereo not given) | 8%
CCC(C)n1c(S(=O)(=O)O)nc2ccccc21 (stereo not given) | 4%
c1ccc(Cn2c(-c3ccco3)nc3nc4ccccc4nc32)cc1 | 18%
COc1ncnc(OC)c1S(=O)(=O)Nc1ccc(C(F)(F)F)cc1 | -11%
COc1ccc(CNC(=O)C2(CC3CC(c4ccccc4)=NO3)CCN(C(=O)c3cccc(O)c3)CC2)cc1 (stereo not given) | -15%
COc1cc(/C=N/Nc2ccccn2)ccc1O | -1%
CCN(CC)c1ccc(NC(=O)CN2CCN(S(=O)(=O)c3ccc(C(C)C)cc3)CC2)cc1 | 4%
Cc1cc(C)c(NC(=O)CCCC(=O)O)c(Cl)c1 | -7%
Cc1[nH]c2ccccc2c1SCC(=O)Nc1nccs1 | -25%
CC(C)Cn1c(=O)c2ccccc2n2c(CCC(=O)NCc3ccc(Cl)cc3)nnc12 | -10%
CN(C)CCNC(=O)c1nn(C)c2c1CCc1ccccc1-2 | 11%
COc1ccc(N(CC2CO2)S(=O)(=O)c2ccccc2)cc1 (stereo not given) | 34%[activator]
CCc1ccc(-n2c(=O)c3c(C)c(C(=O)N(C)C)sc3n(Cc3cccc(C)c3)c2=O)cc1 | 2%
O=C(Nc1ncccc1O)c1ccc2ccccc2c1 | -1%
Nc1nc(N)nc(-c2ccc([N+](=O)[O-])o2)n1 | 4%
COc1cccc(CN(C)C(=O)C23CC4CC(CC(NC(C)=O)(C4)C2)C3)c1OC | 5%
CC(C)Oc1ccc(C(=O)/C(=C\c2cccs2)c2nc3ccccc3o2)cc1 | -25%
CCOC(=O)c1ccc(N(CC(=O)NC2CCCCC2)C(=O)CNC(=O)c2ccco2)cc1 | 25%
Cn1nc(-c2ccccc2)cc1NS(=O)(=O)c1ccc(C#N)cc1 | 3%
CCc1c(C)sc2c1CCN(Cc1ccc(C#N)cc1)C2c1ccccc1 (stereo not given) | 4%
CCC(Oc1ccccc1)C(=O)Nc1ccc(OCc2cc(=O)n3ccc(C)cc3n2)cc1 (stereo not given) | 11%
CCOc1ccc(Nc2nc(N)c([N+](=O)[O-])c(NCc3ccccc3)n2)cc1 | 6%
Cc1ccc(-n2nc3c(N4CCC(C(=O)N5CCCCC5)CC4)nnc(C)c3c2C)cc1 | 2%

Part of the list above in order of formula weight, largest number first.
SMILES | VDR inh
Fc1ccc(C(NCCc2ccc(Cl)cc2)c2nnc(-c3ccccc3)o2)c(Cl)c1 (stereo not given) | 8%
COc1cccc(CN(C)C(=O)C23CC4CC(CC(NC(C)=O)(C4)C2)C3)c1OC | 5%
CCOc1ccc(Nc2nc(N)c([N+](=O)[O-])c(NCc3ccccc3)n2)cc1 | 6%
c1ccc(Cn2c(-c3ccco3)nc3nc4ccccc4nc32)cc1 | 18%

Arranged by value in VDR inh (lowest first): 7 of the compounds above.
SMILES | VDR inh
Cc1[nH]c2ccccc2c1SCC(=O)Nc1nccs1 | -25%
CC(C)Cn1c(=O)c2ccccc2n2c(CCC(=O)NCc3ccc(Cl)cc3)nnc12 | -10%
Cc1cc(C)c(NC(=O)CCCC(=O)O)c(Cl)c1 | -7%
CCc1c(C)sc2c1CCN(Cc1ccc(C#N)cc1)C2c1ccccc1 (stereo not given) | 4%
Fc1ccc(C(NCCc2ccc(Cl)cc2)c2nnc(-c3ccccc3)o2)c(Cl)c1 (stereo not given) | 8%
CN(C)CCNC(=O)c1nn(C)c2c1CCc1ccccc1-2 | 11%
CCOC(=O)c1ccc(N(CC(=O)NC2CCCCC2)C(=O)CNC(=O)c2ccco2)cc1 | 25%

The list goes on.
SMILES | VDR inh
COc1ccc(C(=O)N/C(=C\c2cn(S(=O)(=O)N(C)C)c3ccccc23)C(=O)NCCCn2ccnc2)cc1 | 26%&21%
Cc1ccc(S(=O)(=O)N2CCN(c3nc(C(C)C)c4c(c3C#N)CC(C)(C)OC4)CC2)cc1 | 6%
O=C(NCc1ccc(F)cc1)c1c2c(nc3ccccc13)CCC2 | 2%
CCOC(=O)c1c(NC(=O)COC(=O)c2ccccn2)sc(C)c1C | -4%
CC(=O)Nc1ccc(N/C(C)=C/C(=O)c2cccnc2)cc1 | 12%
CC(=O)NCCCc1ccc(C(=O)COC(=O)CNC(=O)c2ccc3ccccc3c2)cc1 | -12%
Cc1cccc(-[n+]2c(-c3cccc(Br)c3)[nH]c3nc4ccccc4nc32)c1 | -9%
CCCCC(=O)NCc1ccccc1Cl | -17%
NC1=NC(=O)C(Cc2cccc(Cl)c2)S1 (stereo not given) | -9%
CC(=O)Nc1ccn(C2OC(C(COC(C)=O)NC(=O)C(Cc3ccccc3)NC(=O)OC(C)(C)C)C(OC(C)=O)C2OC(C)=O)c(=O)n1 (stereo not given) | 12%
CC(C)(C)c1ccc(C(=O)NCCC(=O)NCc2ccco2)cc1 | -4%
CS(=O)(=O)N(CC(=O)N1CCCCC1)c1ccc2c(c1)OCO2 | 4%
CC(=O)N1CCc2[nH]c3ccc(C)cc3c2C1 | 4%
O=C(CSc1ccc(-c2ccccn2)nn1)N1CCCC1 | 71µM*
CC(=O)c1cccc(NC(=O)C(C)OC(=O)c2ccc(-n3cnnn3)cc2)c1 (stereo not given) | 1%
Cc1nnc(C)c2c(C)n(C(C)c3ccccc3)c(C)c12 (stereo not given) | 8%
Cc1nc2ccc(NS(=O)(=O)c3ccc(F)cc3F)cc2s1 | 8%
COc1cccc(-c2ccc(C#N)c(=O)[nH]2)c1 | 23%
O=C(O)CSc1ncnc2sc3c(c12)CCCC3 | 8%
Cc1ccc(S(=O)(=O)N2CCN(C(=O)C3CCCCC3)CC2)cc1 | 18%
O=C(c1nc2ccc(Cl)cn2c1CN1CCC(O)CC1)N1CCc2ccccc2C1 | -2%
Cc1ccc(C(=O)c2ccc(O)cc2)cc1C | 6%
COc1ccc2c(c1)CCc1c(C(=O)Nc3ccc(F)c(Cl)c3)noc1-2 | -15%
C=CCN(c1ccccc1)S(=O)(=O)c1ccc(Cl)c(C(=O)OCC(=O)c2[nH]c(C)c(C(C)=O)c2C)c1 | -2%
Cn1c(=O)c2c(SCc3ccccn3)nc(C3CC3)nc2n(C)c1=O | -14%

Structural class: the entries above with a cyano group.
SMILES | VDR inh
Cn1nc(-c2ccccc2)cc1NS(=O)(=O)c1ccc(C#N)cc1 | 3%
CCc1c(C)sc2c1CCN(Cc1ccc(C#N)cc1)C2c1ccccc1 (stereo not given) | 4%
Cc1ccc(S(=O)(=O)N2CCN(c3nc(C(C)C)c4c(c3C#N)CC(C)(C)OC4)CC2)cc1 | 6%
COc1cccc(-c2ccc(C#N)c(=O)[nH]2)c1 | 23%

The list goes on:
SMILES | VDR inh
COc1ccc(NC(=O)CSc2ccc3nc(-c4ccccc4)cn3n2)cc1OC | 4%
CCOc1ccccc1N1CCN(C(=O)c2ccc(S(=O)(=O)Nc3ccccc3)cc2)CC1 | -6%
CCOc1ccccc1NC(=O)c1cccc(NC(=O)C2CCCC2)c1 | -8%
O=C(/C=C/NNC(=O)c1ccccc1)c1ccc(Br)cc1 | 13%
CCCCN1C(N)=NC[C@@H]1CCCCN | -3%
COc1ccc2cc3cc(C(=O)NCc4cccs4)oc3nc2c1 | -13%
Cc1nc(/C(N)=N/OC(=O)c2ccccc2Cl)c(C(F)(F)F)o1 | -14%
Cc1ccc(-n2ncc3c(=O)[nH]c(SCC(=O)N4CC(=O)Nc5ccccc54)nc32)cc1 | -8%
O=C(c1ccc(F)cc1)C1CCN(C(=O)c2c(F)cccc2F)CC1 | 0%
Fc1ccc(-n2cc(-c3ccccc3)c3c(NN4CCOCC4)ncnc32)cc1 | 9%
C[C@H](CO)N1C[C@H](C)[C@@H](CN(C)S(=O)(=O)c2cccs2)Oc2ccc(NC(=O)C3CC3)cc2C1=O | 0%
O=C(/C=C/c1ccco1)Nc1ccc(F)cc1 | 0%
O=c1[nH]c(=O)n(Cc2ccccc2)c2nc(-c3cccs3)n(CCO)c12 | 11%
CC(C)(C)C1CCc2c(sc(NC(=O)c3cc(C4CC4)on3)c2C#N)C1 (stereo not given) | ?
O=c1[nH]c(O)c(/C=C2\C=Nc3ccccc32)[nH]1 | 24%
COc1ccc2c(c1)c1c(c(=O)n(Cc3ccccc3)c(=O)n1Cc1ccccc1Cl)n2C | 0%
CC(C)n1cc(CN2CCC(C(=O)Nc3cccc(-c4cccc(Cl)c4)c3)CC2)cn1 | 7%
CC(C)(C(=O)c1ccccc1)/[N+]([O-])=C/c1ccc(F)cc1 | 4%
CCNC(=S)NNc1nnc(-c2ccccc2)c(-c2ccccc2)n1 | 4%
CC(Oc1ccc(Br)cc1)C(=O)NNC(=O)CCN1CCN(c2ccccc2)CC1 (stereo not given) | -7%
Cc1ccc2cccc(NC(=S)NC(=O)c3ccn(C)n3)c2n1 | -1%
COc1ccccc1NC(=O)C(C)Sc1nnnn1C (stereo not given) | -3%
COc1ccc(CCNC(=O)C(C)SCc2ccccc2)cc1 (stereo not given) | 8%
COc1cc(OC)c2c(c1)OC(=O)CC2c1ccc(C)cc1 (stereo not given) | 2%&-17%
CSc1nnc(C)c(=O)n1COC(=O)COc1ccccc1F | -5%

Next records follow.
SMILES | VDR inh
CCC1CC=CC2C1C(=O)N(Cc1ccccc1)C2c1ccc(C(F)(F)F)cc1 (stereo not given) | 11%
NNc1nc2sc3c(c2c(=O)[nH]1)CCc1ccccc1-3 | ?
COc1ccc(-n2nc3cc(N)c(Br)cc3n2)cc1 | -27%
N=C1C(c2nc3ccccc3s2)=C(O)CN1C1CCCCC1 | -5%
COc1ccc(-c2cc3nc(C4CCN(C(=O)OC(C)(C)C)CC4)c(C(=O)Nc4cc(C)cc(C)c4)cn3n2)cc1 | -9%
Cn1c(CC(=O)Nc2ccccc2)nnc1SCCOc1ccccc1 | -5%
CCOC(=O)C1CCCN(Cc2ccccc2OCC)C1 (stereo not given) | -4%
CCS(=O)(=O)N1CCC(C(=O)NCCCN2CCCCCC2)CC1 | -6%
COc1cc(C#CC#CCN2CCCCC2)ccc1O | 6%
CNc1nc(-c2ccccc2Cl)nc2ccccc12 | ?
CSc1cccc(NC(=S)NCCCO)c1 | 21%
Cc1c(NC(=O)c2cc(C3CC3)on2)c(=O)n(-c2ccccc2)n1C | -18%
CCOC(=O)C1CCN(C(=O)c2cc(C(C)(C)C)nn2Cc2ccccc2)CC1 | 10%
CN1OC(CC(=O)O)N(c2ccc(Cl)cc2)C1=O (stereo not given) | -16%
Cc1cccc(C)c1OCC(=O)NCC1COc2ccccc2O1 (stereo not given) | -15%
Cc1cc(C(=O)OCC(=O)NCCC(C)C)c2ccccc2n1 | -7%
Cc1ccc2c3c1C(=O)C(=O)N3C(C)(C)CC2C (stereo not given) | -2%
Cc1ccc(NC(=O)c2nc[nH]c2C(=O)NC2CCN(C(=O)OC(C)(C)C)CC2)cc1 | -22%
COc1cccc(CNC(=O)c2ccc(Cl)c(S(=O)(=O)N3CCOCC3)c2)c1 | 0%
O=C(Cc1c(F)cccc1Cl)N(Cc1ccccc1)c1ccccn1 | -24%
CC1=C(c2ccc(C)c(C)c2)S(=O)(=O)N=C1N1CCC(C(=O)NC(C)c2ccccc2)CC1 (stereo not given) | -8%
CCc1noc(C)c1C(=O)OCC(=O)N(C)c1c(N)n(Cc2ccccc2)c(=O)[nH]c1=O | -3%
CN1C(=O)c2ccccc2Sc2ccc(NC(=O)Nc3ccccc3F)cc21 | 2%
CCOC(=O)c1c(NC(=O)COC(=O)CCS(=O)(=O)c2ccc(C)cc2)sc(C)c1C | -6%
CCOC(=O)NCc1ccc(S(=O)(=O)Nc2c(C)cccc2C)cc1 | -2%

Next part:
SMILES | VDR inh
Cc1ccc(C(=O)Oc2ccc3ccc(=O)oc3c2)cc1 | 3%
COc1cc(/C=N/n2c(COc3ccccc3)n[nH]c2=S)cc(Br)c1O | -15%
CC(NS(=O)(=O)c1ccc(Cl)cc1)C(=O)N1CCOCC1 (stereo not given) | 3%
COc1ccc(NC(=O)Cc2c(Sc3ccccc3)c3ccccc3n2C)cc1 | -17%
O=C(CCc1[nH]c2ccccc2c1Sc1ccccc1)N(CCO)CCO | ?
COc1cc(-c2[nH]ncc2CN(C)Cc2nonc2C)cc(OC)c1OC | -5%
CN1CCN(C(=O)C2CCCN(S(=O)(=O)c3ccccc3)C2)CC1 (stereo not given) | 5%
CC(C)CCNC(=O)c1cc([N+](=O)[O-])ccc1N1CCOCC1 | -25%
COc1ccccc1NC(=O)N(Cc1ccco1)Cc1cc2ccc(C)c(C)c2[nH]c1=O | 15%
COc1ccccc1Nc1nn2c(=O)c3ccc(C(=O)NCCc4ccccc4)cc3nc2s1 | 10%
Cc1ccsc1C(=O)N1CCCC(CO)(Cc2ccccc2F)C1 (stereo not given) | -9%
Cc1ccc(OCC(=O)NCCNC(=O)c2cnccn2)cc1C | -5%
CCOC(=O)CNC(=O)C(Cc1ccccc1)NC(=O)OCc1ccccc1 (stereo not given) | -15%
CCn1c(SC)nc2c([nH]c3ccccc32)c1=O | 1%
CC(=O)c1cc(C#N)c(SCc2ccccn2)nc1C | 9%
COc1ccccc1CNC(=O)C1CCC(=O)N(CCCc2ccccc2)C1 (stereo not given) | -6%
COc1ccc(-n2c(=O)c3ccccc3n(CC(=O)NC3CCCCC3)c2=O)cc1OC | 9%
CCOC(=O)c1cnn(C(=O)c2ccccc2)c1N | -3%
Cc1cc(C)cc(NC(=S)N(CCCN2CCN(C)CC2)Cc2cccs2)c1 | 1%
O=C1CCCN1c1ccc(C(=O)N(Cc2nnc(-c3ccccc3Cl)o2)C2CC2)cc1 | -8%
COc1ccc(NC(=O)C2CC3CCC2C3)c(OC)c1 (stereo not given) | -8%
Cc1nnc(NC(=O)CCNC(=O)c2ccccc2Cl)s1 | 6%
COc1ccc(C(C(=O)OCCN(C)C)c2ccccc2)cc1 (stereo not given) | -2%
COc1cc(C(=O)NCC2(N3CCCCC3)CCCCC2)ccc1OCC(=O)N1CCOCC1 | 2%
Cc1cccnc1N(C(=O)Nc1ccccc1)C1=NCC(C)(C)S1 | 0%

Screening data deposited in PubChem by National Center for Advancing Translational Sciences (NCATS).
